Six1-Eya2 inh: Six1/Eya2 interaction inhibition | AlphaScreen GST-Six1/His-Eya2 binding, biochemical; active compounds read low; control for the full effect not named in the record | activity change, % (concentration not given with the values) | 0.56% of 360,000 active | AID 651725; in the data active = activity change below about -65%; inconclusive = about -30% to -65%; inactive = above about -30%; further: on the % scale 0 is the no-effect control and ±100 the full control effect
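Homogeneous AlphaScreen proximity assay pairing GST-Six1 with His-tagged Eya2 (added as 5X mix: 250 nM and 500 nM) in 50 mM Tris pH 8.0, 300 mM NaCl, 1 mM TCEP. Glutathione donor and nickel acceptor beads; 1 h, 37 °C, dark.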
D2 PAM: positive allosteric modulators of human D2 dopamine receptor. P14416. DiscoveRx D2 beta-arrestin cells, luminescence, 90 min; 100% = 57 uM dopamine signal. potentiation, % (concentration not given with the values). 0.23% of 360,000 active. AID 624464; active = potentiation of 50% or more; inconclusive = 30% to 50%; inactive = 30% or less;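 further: compound concentration not given in the record; tested on top of an EC20 dose of dopamine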
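D2 cells co-treated with compound plus 50 nM dopamine (EC20) for 90 min at 37 deg C to detect potentiation. Beta-arrestin recruitment was read as enzyme-fragment luminescence after 1 h at ambient temperature. Full response was set by 57 uM dopamine.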
TRPML1 agonist: agonists of human TRPML1 channel; Q9GZU1; TRPML1-expressing cells, Ca2+ dye fluorescence, FDSS; host cell line not named in the record; reference of the full effect not given here; activation, % (test concentration not listed); 0.12% of 410,000 active; AID 624414; in the data active = activation above about 50%; inconclusive = about 30% to 50%; inactive = below about 30%; further: 0% is about no effect; the text of the record puts the active cut at 80%
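TRPML1-DL cells, Tet-induced overnight (~16 h, 37 degrees C), loaded 45-90 min at room temperature with Ca8 no-wash calcium dye plus quencher. FDSS fluorescence: 10 s baseline, compound pin-transfer, 110 s agonist read, then EC80 54-4 (4uM final) and 110 s antagonist read.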
TRPV1 PAM: potentiators of human vanilloid receptor 1 (TRPV1); potentiation, % at 8.33 µM; 0.02% of 320,000 active; TRPV1-expressing cells, Fluo-8 calcium influx, capsaicin EC20 potentiation; host cell line not named in the record; control for the full effect not named in the record; active means potentiation above 80%; inconclusive means 30% to 80%; inactive means below 30%; further: 0% is about no effect
Target sequence (Q8NER1 whole entry, looked up): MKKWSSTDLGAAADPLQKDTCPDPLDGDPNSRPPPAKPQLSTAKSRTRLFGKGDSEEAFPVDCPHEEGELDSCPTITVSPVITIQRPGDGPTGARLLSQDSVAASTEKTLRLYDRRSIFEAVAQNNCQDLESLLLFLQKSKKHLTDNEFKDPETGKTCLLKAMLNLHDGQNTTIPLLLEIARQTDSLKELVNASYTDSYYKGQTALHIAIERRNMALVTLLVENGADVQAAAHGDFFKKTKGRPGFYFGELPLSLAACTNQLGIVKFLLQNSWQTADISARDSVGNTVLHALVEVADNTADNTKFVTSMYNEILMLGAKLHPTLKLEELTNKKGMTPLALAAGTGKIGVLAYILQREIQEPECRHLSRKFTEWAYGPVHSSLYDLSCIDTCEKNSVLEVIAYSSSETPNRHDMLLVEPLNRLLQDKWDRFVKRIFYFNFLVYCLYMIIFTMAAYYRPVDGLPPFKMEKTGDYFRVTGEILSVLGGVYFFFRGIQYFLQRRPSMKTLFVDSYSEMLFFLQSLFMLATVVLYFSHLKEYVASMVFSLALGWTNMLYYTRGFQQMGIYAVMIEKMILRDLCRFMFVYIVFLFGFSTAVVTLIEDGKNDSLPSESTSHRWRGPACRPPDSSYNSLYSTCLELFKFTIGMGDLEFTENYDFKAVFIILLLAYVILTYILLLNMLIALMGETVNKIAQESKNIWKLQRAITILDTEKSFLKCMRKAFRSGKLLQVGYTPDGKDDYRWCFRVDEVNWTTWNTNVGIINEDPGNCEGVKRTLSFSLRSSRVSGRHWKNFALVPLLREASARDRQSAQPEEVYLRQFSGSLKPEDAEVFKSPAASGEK
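Fluo-8 calcium influx in TRPV1-expressing cells, kinetic read (ex 480/em 520 nm). Compound added and read 3 min for agonist activity, followed by capsaicin at EC20 final and 2 min further read for enhancement.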
TRPML1 blocker: inhibitors of human TRPML1 channel | AID 624415 | 0.02% of 390,000 active | activity change, negative = inhibition, % (no concentration beside the values) | Q9GZU1 | TRPML1-inducible cells, Ca2+ dye fluorescence, FDSS; active compounds read low; inhibition of EC80 agonist-evoked calcium signal; in the data active means activity change below about -50%; inconclusive means about -30% to -50%; inactive means above about -30%;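 further: stimulus is agonist 54-4 at its EC80 concentration; on the % scale 0 is the no-effect control and ±100 the full control effect; compound concentration not given in the record; the text of the record puts the active cut at -80%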
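TRPML1-DL cells, Tet-induced overnight (~16 h, 37 °C) at 1,500 cells/well, were loaded with Ca8 no-wash dye plus quencher for 45-90 min at room temperature. Compounds were pinned during FDSS kinetic reading; agonist 54-4 at EC80 (4 uM final) then added.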
CtBP-E1A blk: blocks the CtBP interaction with E1A; activity change, % (concentration not given with the values); 0.49% of 340,000 active; AlphaScreen GST-E1A/His-CtBP binding, 1536-well; active compounds read low; control for the full effect not named in the record; AID 651724; in the data active means activity change below about -65%; inconclusive means about -30% to -65%; inactive means above about -30%; further: on the % scale 0 is the no-effect control and ±100 the full control effect
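Protein mix (5X: 125 nM each GST-E1A, His-CtBP) was incubated with pinned compound 2 h at 37 deg C in dark, in 50 mM Tris pH 8.0 buffer with 300 mM NaCl. Glutathione donor and nickel acceptor beads followed; AlphaScreen signal read after 1 h.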
* marks the source's active call; other numbers are inactive results; ? = inconclusive; nt = no result given.

| Molecule | CtBP-E1A blk | TRPML1 blocker | Six1-Eya2 inh | TRPML1 agonist | TRPV1 PAM | D2 PAM |
| --- | --- | --- | --- | --- | --- | --- |
| Cc1cc(Br)cc2c(C(=O)NCC3CCCO3)cc(-c3ccccc3)nc12 (stereo not given) | 0 | 9 | 16 | 1.4 | -2 | -12 |
| COC(=O)c1ccc(COc2cc(O)c3c(c2)OC(C)(C)CC3=O)cc1 | 7 | -2 | 13 | 0.0 | 1 | -15 |
| CC1CC(C)CN(C(=O)Cn2c(=O)n(CCCCC(=O)NC3CCCC3)c(=O)c3ccccc32)C1 (stereo not given) | 10 | -14 | 1 | -1.0 | 0 | -5 |
| CCN(CC)c1ccc(C(=O)NNC(=O)Cn2c(=O)cnc3ccccc32)cc1 | -1 | -3 | 10 | -0.2 | nt | -24 |
| COC(=O)CSc1nc2c(c(C3CC=CCC3)c1C#N)CCC2 (stereo not given) | 10 | 19 | 12 | 0.6 | -3 | -13 |
| CC(C(=O)Nc1ccc2c(c1)OCCO2)c1ccc([N+](=O)[O-])cc1 (stereo not given) | -1 | 11 | 1 | 19 | 1 | -3 |
| COc1ccc(NC(=O)/C(C#N)=C/c2ccc(OCCN3CCOCC3)c(OC)c2)c(OC)c1 | -5 | 6 | -2 | 0.5 | 9 | -17 |
| COc1cc(-c2nc(CN3CCN(C(=O)c4ccco4)CC3)c(C)o2)ccc1F | 0 | 0 | 2 | 0.2 | 15 | -11 |
| CCCN1Cc2cccc(C(=O)Nc3ccc4c(c3)OCO4)c2C1=O | 0 | -7 | -2 | 0.2 | -7 | 0 |
| COc1cccc(NC(=O)c2ccc(CN3CCc4ccccc4C3)cc2)c1 | -25 | -19 | -6 | -0.2 | -1 | -3 |
| O=C(NC(=S)N1CCN(c2ccccc2)CC1)c1ccc(S(=O)(=O)N2CCOCC2)cc1 | -12 | 5 | -8 | 0.8 | 0 | -8 |
| Cc1c(Cl)cccc1NC(=S)N(Cc1ccccc1)Cc1cccnc1 | 2 | -18 | 2 | -0.2 | -6 | -10 |
| Cc1ccc(Nc2cc(-n3nc(C)cc3C)ncn2)cc1 | -3 | -4 | 17 | 0.9 | -5 | 3 |
| CC1(NC(=O)c2cccc(S(=O)(=O)N3CCCc4ccccc43)c2)CCS(=O)(=O)C1 (stereo not given) | 2 | 2 | -2 | -0.8 | -20 | 10 |
| CC[C@@H]1CCCCc2ccccc2[C@@H](C(=O)C[C@H](O)CC(C)=O)OC1=O | 0 | -16 | 0 | -0.9 | nt | 10 |
| COc1ccc(OCCn2ccnc2)cc1 | 7 | -12 | 2 | 0.4 | -7 | 1 |
| N#Cc1cc2cc3c(cc2nc1SCC(=O)N1CCOCC1)OCO3 | 8 | -14 | -1 | -0.3 | 0 | -5 |
| O=C(Nc1ccc(NC(=O)c2cccs2)cc1)c1ccc2c(c1)OCO2 | 6 | 25 | -3 | 0.7 | -2 | -4 |
| CCCOc1ccc(Cc2nn3c(=O)/c(=C/c4ccco4)sc3nc2=O)cc1 | -18 | 0 | -25 | 50* | -33 | 10 |
| CC(=O)Nc1nc(-c2cc([N+](=O)[O-])cs2)cs1 | nt | 14 | 4 | 0.5 | -3 | -3 |
| OC(CC#CCN1CCCC1)(c1ccccc1)c1ccccc1 | 0 | 2 | 5 | -0.1 | -3 | -16 |
| C=CCn1c(C)nnc1SCC(=O)Nc1nc(C)c(C(=O)N(C)C)s1 | 2 | -1 | 2 | 0.0 | 2 | -2 |
| Cc1ccc([C@@H]2CC=C(C(=O)O)[C@H](c3cccc(Cl)c3)N2S(=O)(=O)c2ccc(C)cc2)cc1 | 3 | 2 | -2 | -0.6 | -2 | -5 |
| Cc1cc(NC(=O)CSc2nc(=O)n3cccc(C)c3n2)no1 | 0 | 8 | 1 | -0.3 | 8 | -3 |
| CCO[C@H]1OC(C(=O)NC2CC2)=C[C@@H](c2csc3ccccc23)[C@@H]1CCCO | 2 | -15 | 2 | -1.1 | -5 | 19 |
| CCOc1ccc(NC(=O)CN(C)C(=O)CCSc2ccc(F)cc2)cc1OCC | -18 | 4 | -10 | 0.8 | 10 | -6 |
| Clc1ccc(SCCN2CCNCC2)cc1 | nt | -8 | -2 | -0.1 | -2 | -4 |
| Clc1ccc(CN2CCC(Cc3ccccc3)CC2)cc1 | 26 | -9 | 17 | 1.2 | 7 | -41 |
| CC1CCN(c2ccc(NC(=O)c3ccccc3[N+](=O)[O-])cc2)CC1 | -16 | 7 | 6 | 0.2 | 5 | -7 |
| COc1ccccc1C(=O)NNC(=O)C12CC3CC(CC(C3)C1)C2 | -2 | 6 | 6 | 0.3 | ? | -4 |
| COc1ccc(NC(=O)COC(=O)c2cc3c(s2)CCC3)cc1 | 8 | -13 | -17 | -0.6 | 5 | -2 |
| COC(=O)c1cccc(NC(=O)CN(c2ccc3c(c2)OCO3)S(C)(=O)=O)c1C | 8 | -1 | 3 | -0.7 | 2 | -4 |
| COC(=O)c1ccc(C)c(NC(=O)CCNC(=O)c2ccc([N+](=O)[O-])cc2)c1 | 7 | -7 | -4 | 1.7 | -3 | -13 |
| O=S(=O)(Nc1ccc(F)cc1)N1CCCCCC1 | -9 | -9 | 8 | -0.8 | -4 | 3 |
| CCN(CC)C(=O)c1sc2nc(-c3cccs3)cc(-c3cccs3)c2c1N | -1 | 5 | 4 | 1.1 | 7 | -10 |
| CCCCOC(=O)c1ccc(NC(=O)c2ocnc2C)cc1 | 2 | 32 | 0 | 0.3 | -10 | 11 |
| O=C(Nc1ccc2oc(-c3ccncc3)nc2c1)c1cccs1 | -4 | -5 | -3 | -0.7 | -27 | 1 |
| COc1ccccc1N1CCN(C(=O)c2oc3ccccc3c2C)CC1 | 0 | -5 | 1 | 0.9 | 4 | -5 |
| Cc1c(CC(=O)O)c(=O)oc2c(C)c3occ(-c4ccccc4)c3cc12 | 0 | 13 | -77* | -1.1 | -10 | -6 |
| CCOC(=O)N1CCN(C(=O)c2ccc3c(c2)NC(=O)/C(=C\c2ccc(OC)c(OC)c2)S3)CC1 | nt | 3 | -14 | 1.6 | 6 | -18 |

4 compounds out of the list, arranged by number of heavy atoms, lowest first.
| Molecule | CtBP-E1A blk | TRPML1 blocker | Six1-Eya2 inh | TRPML1 agonist | TRPV1 PAM | D2 PAM |
| --- | --- | --- | --- | --- | --- | --- |
| O=S(=O)(Nc1ccc(F)cc1)N1CCCCCC1 | -9 | -9 | 8 | -0.8 | -4 | 3 |
| CCCCOC(=O)c1ccc(NC(=O)c2ocnc2C)cc1 | 2 | 32 | 0 | 0.3 | -10 | 11 |
| CCN(CC)C(=O)c1sc2nc(-c3cccs3)cc(-c3cccs3)c2c1N | -1 | 5 | 4 | 1.1 | 7 | -10 |
| CCOC(=O)N1CCN(C(=O)c2ccc3c(c2)NC(=O)/C(=C\c2ccc(OC)c(OC)c2)S3)CC1 | nt | 3 | -14 | 1.6 | 6 | -18 |

Remaining list, next part
| Molecule | CtBP-E1A blk | TRPML1 blocker | Six1-Eya2 inh | TRPML1 agonist | TRPV1 PAM | D2 PAM |
| --- | --- | --- | --- | --- | --- | --- |
| CCc1ccc(OCC2c3cc(OC)c(OC)cc3CCN2C(C)=O)cc1 (stereo not given) | nt | 2 | -5 | 1.1 | -12 | -6 |
| CC(C)CN(C1CCS(=O)(=O)C1)S(=O)(=O)c1ccc2ccccc2c1 (stereo not given) | 2 | 0 | 3 | 0.3 | 5 | -12 |
| CCOc1ccc(OCCC(=O)Nc2cccc(S(=O)(=O)N3CCCC3)c2)cc1 | -4 | 16 | -6 | 1.1 | -2 | -28 |
| COc1ccccc1CNC(=O)CCCn1c(=O)c2ccccc2n(CC(=O)NC2CCCC2)c1=O | 9 | 15 | 5 | 0.0 | 13 | -4 |
| COC(=O)[C@]1(CC(C)C)N[C@H](c2ccc(-c3ccc(OC)cc3)cc2)[C@@H]2C(=O)N(C)C(=O)[C@@H]21 | -6 | -9 | -8 | -0.8 | -30 | -8 |
| O=P(CO)(Cc1ccccc1)Cc1ccccc1 | 3 | -8 | -7 | 0.7 | -17 | -3 |
| COc1cccc([C@@H]2CC=C(C(=O)O)[C@H](c3cccc(Cl)c3)N2S(=O)(=O)c2ccc(C)cc2)c1 | nt | -10 | 1 | -0.3 | -12 | -9 |
| Cc1ccc(OCCNC(=O)CCNC(=O)c2ccc(Cl)cc2)cc1 | nt | 3 | 0 | -0.7 | -15 | -5 |
| CCOc1ccc2nc(NC(=S)N(C)C)sc2c1 | -3 | 6 | -4 | -1.1 | -17 | -3 |
| Cc1csc(N/N=C/c2c(F)cccc2Cl)n1 | -5 | 11 | -6 | -0.6 | 22 | -9 |
| COC(=O)c1ccc(NC(=S)NN2CCCCC2c2cccnc2)cc1 (stereo not given) | 10 | -3 | -1 | -0.2 | -14 | -5 |
| Nc1nc(CSCCO)nc(Nc2ccc(F)cc2)n1 | 1 | 15 | 7 | 3.1 | -10 | 0 |
| Cc1cccc(C)c1OCc1cc(C(=O)NCC2COCCO2)no1 (stereo not given) | 12 | -17 | 22 | -0.2 | -4 | -29 |
| C[N+](C)(C)CCOP(=O)(O)OP(=O)([O-])OC[C@H]1O[C@@H](n2ccc(N)nc2=O)[C@H](O)[C@@H]1O | 0 | 12 | -1 | 0.2 | -1 | 6 |
| COc1ccc2nc(SC(C(=O)c3ccccc3)c3ccccc3)nc(C)c2c1 (stereo not given) | 0 | 23 | -3 | 1.7 | 21 | -7 |
| CC12CN3CC(=O)N4CC5(C)CN(CC(C)(C4)C5=O)C(=O)CN(C1)CC(C)(C3)C2=O | 6 | 25 | 2 | 1.1 | 15 | -6 |
| COc1ccc(CCC(=O)OCC(=O)c2ccc[nH]2)cc1OC | 0 | -18 | 21 | 1.6 | nt | -3 |
| Cn1c(NC(=O)c2ccccc2)nc2ccccc21 | 4 | -13 | -6 | 0.0 | -1 | -5 |
| COc1ccc(NC(=O)c2cc(S(=O)(=O)Nc3ccc(OC)cc3)cs2)cc1 | nt | 3 | -4 | -0.5 | -3 | -18 |
| C=CCn1c(SCC(=O)c2cc(C)n(CC3CCCO3)c2C)nnc1-c1ccccc1 (stereo not given) | -11 | 7 | -14 | 3.0 | 3 | 14 |
| C=CCc1c(OC(C)=O)c2ccccc2n(C)c1=O | -4 | 3 | 0 | -0.4 | -1 | 11 |
| CC(=O)N1CCCN(C(=O)c2ccc3nc(Cc4cccc(Cl)c4)oc3c2)CC1 | 0 | 12 | 13 | 0.0 | 11 | 1 |
| Cc1ccc(Cn2ncc(C)c2N)o1 | nt | -22 | 10 | 0.1 | -7 | -10 |
| CCOc1ccc(S(=O)(=O)Nc2cc(S(=O)(=O)N3CCOCC3)ccc2OC)cc1 | nt | -1 | 4 | -0.5 | 5 | 8 |
| Cc1cc(Cn2nnnc2-c2ccncc2)cc(C)c1O | -12 | 1 | -1 | -0.4 | -11 | -7 |
| Cc1ccc(/C=C/C(=O)c2cc(Br)ccc2OC(=O)c2ccco2)cc1 | -1 | 42 | -1 | 0.5 | -12 | -2 |
| Cc1ccc(NC(=O)N2CCC(C(=O)NCc3ccc(F)cc3)CC2)cc1 | 4 | 29 | 3 | -0.3 | 16 | -2 |
| CC(C)[C@H](NC(=O)c1ccc(F)cc1)C(=O)OCC(=O)NC(=O)c1cccn1C | nt | ? | 13 | 0.6 | 2 | 2 |
| COc1cc(OC)cc(-c2nc3ccccc3s2)c1 | 30 | 0 | 32 | 2.5 | -9 | 8 |

Bioassay records deposited in PubChem by National Center for Advancing Translational Sciences (NCATS).
